E coli growth: inhibitors of Escherichia coli growth | OD600 absorbance (no concentration beside the values) | OD600, 23 h; hits give low values | AID 1053175 | hit rate 0.21% among 330,000;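 active = OD600 absorbance below the run mean of sample wells minus 3.6 SD, in any replicate, cut at about 0.56 in these data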;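 note: stock transfer was 300 nL into about 60 µL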
Starred values were filed as active, the others as inactive; & = joins results of further samples.

E coli growth,SMILES
0.68,COc1ccc(C2C=CCN(C(=O)c3ccccc3)C(C)C(=O)N2Cc2ccc(F)cc2)cc1 (stereo not given)
0.7&0.71,CC(C)(C)C1C=C(C(=O)O)OC(OCCCCO)C1 (stereo not given)
0.64&0.68,O=C(O)C1=CC(C2CC2)CC(OCc2ccc(CO)cc2)O1 (stereo not given)
0.65,COC(=O)[C@]1(C)NC(c2ccc(-c3ccc(OC)cc3)cc2)C2C(=O)N(C)C(=O)C21 (stereo not given in full)
0.68,Cc1nnnn1C(=Cc1ccccc1)C(=O)OCC(=O)N1CC2(C)CC1CC(C)(C)C2 (stereo not given)
0.71,CCOC(=O)C1C2COc3ccccc3C2N2C(=O)N(c3cccc(Cl)c3)C(=O)[C@]12C (stereo not given in full)
0.71,COc1ccc(NC(=O)N(C)CC2Oc3c(NC(=O)Nc4ccc5c(c4)OCO5)cccc3C(=O)N(C(C)CO)CC2C)cc1 (stereo not given)
0.67&0.71,CCOC(=O)C1C2COc3ccc(Br)cc3C2N2C(=O)N(c3cccc(Cl)c3)C(=O)[C@]12C (stereo not given in full)
0.67,COCCN1C(=O)NC(c2cccc(F)c2)C(C(=O)OC)=C1C (stereo not given)
0.67,CCC(C)C(Nc1nc(-c2ccccc2)nc2c1oc1ccccc12)C(=O)O (stereo not given)
0.7,COc1ccc(C2CC(=O)C=C(c3ccc4c(c3)OCCO4)C2)cc1 (stereo not given)
0.62,c1ccc(CCC2CCC(CCc3ccccc3)N2)cc1 (stereo not given)
0.71,CSCCC(C(=O)NCCCCCCCCCCC(=O)N1CCNCC1)n1cc(CCO)nn1 (stereo not given)
0.72,CCCCN1CCC2C=CCC(C(=O)Nc3ccc(Cl)c(C(F)(F)F)c3)C2C1=O (stereo not given)
0.69,COc1ccc(N2C(=O)N3C(c4ccc(Cl)cc4)C4C(=O)N(C5CCCCC5)C(=O)C4[C@]3(C)C2=O)cc1 (stereo not given in full)
0.69,Cc1cccc(C2C3C(=O)N(Cc4ccccc4)C(=O)C3[C@]3(Cc4ccc(Cl)cc4)C(=O)N(c4ccccc4)C(=O)N23)c1 (stereo not given in full)
0.67,Cc1csc(NC(=O)C=Cc2ccc(C)o2)n1
0.67,O=C(O)C=Cc1ccc(O)c(O)c1
0.64&0.7,O=C(Nc1ccccc1)C1=CC(c2coc3ccccc3c2=O)CC(OCCCCO)O1 (stereo not given)
0.67,O=S1(=O)C2CC3O[C@]2(CC3c2ccc(F)cc2)CN1Cc1ccc(Cl)cc1 (stereo not given in full)
0.61,CC1CC=CC2C1C(=O)N(Cc1ccccc1)C2c1cccc([N+](=O)[O-])c1 (stereo not given)
0.66,COc1ccc(CN2CCC3C=CCC(C(=O)NCCc4ccccc4)C3C2=O)cc1OC (stereo not given)
0.74&0.7&0.68&0.75&0.74&0.73&0.73&0.71,C=CCC(CC(=O)NC(CO)Cc1ccccc1)C(=O)NC(COC(=O)C(CC=C)CC(=O)OC(C)(C)C)Cc1c[nH]c2ccccc12 (stereo not given)
0.61&0.7,O=C(NC1CC=CCC(CC(=O)N(CCO)Cc2ccccc2)C(=O)NC(Cc2ccccc2)COC1=O)OCC1c2ccccc2-c2ccccc21 (stereo not given)
0.68,COc1ccc(C2C=CCN(C(=O)CC(C)(C)C)CC(=O)N2Cc2ccc(F)cc2)cc1 (stereo not given)
0.7,COc1ccc(C2CC(=O)C=C(c3cccc(F)c3OC)C2)cc1 (stereo not given)
0.72,Cc1noc(C=CN(C)C)c1S(=O)(=O)N1CCCC(C(=O)Nc2ccc3c(c2)OCO3)C1 (stereo not given)
0.65,COC(=O)CC1c2cc(C(F)(F)F)ccc2S(=O)(=O)N1c1ccc(N(C)C)cc1 (stereo not given)
0.67,CC1OC(OC2CC[C@@]3(C)C(CC[C@]4(C)C3C=C[C@]35OC[C@@]6(CCC(C)(C)CC63)C(O)C[C@]54C)[C@]2(C)CO)C(O)C(OC2OC(CO)C(O)C(O)C2O)C1O (stereo not given in full)
0.65,C[C@@]12CCC3[C@@](CCC4[C@@]3(C)CCC[C@@]4(C)C(=O)O)(CC1NCc1ccccc1)C2 (stereo not given in full)
0.7,CCCCN1C(N)=NCC1Cc1ccccc1 (stereo not given)
0.7,C[C@@]12CCC=CC1C(c1ccoc1)N(Cc1ccccc1)C2=O (stereo not given in full)
0.69,CC=C(C)C(=O)N1CC2(CC(c3cccc(NC(=O)COc4ccc(Cl)cc4)c3)=NO2)CC1C(N)=O (stereo not given)
0.7,O=C1NCC(c2ccccc2)N(CCc2cccc3ccccc23)C1=O (stereo not given)
0.7,O=C1C=C(c2cccc(CO)c2)CC(c2ccc(Cl)cc2)C1 (stereo not given)
0.71&0.68,C=CCOC(=O)C1=CC(c2ccc(C(F)(F)F)cc2)C(CCCO)C(OCC)O1 (stereo not given)
0.67,Cc1ccccc1CN1C(CC2CCCCC2)COCCS1(=O)=O (stereo not given)
0.71&0.7,CCOC(=O)C1C2COc3cc(OC)ccc3C2N2C(=O)N(c3ccc(C(F)(F)F)cc3)C(=O)[C@@]12C (stereo not given in full)
0.7,COc1ccc(NC(=O)Nc2ccc3c(c2)C(=O)N(C(C)CO)CC(C)C(CN(C)S(=O)(=O)c2cccs2)O3)cc1 (stereo not given)
0.63,N=c1ccn2c(n1)OC1C(CO)C(O)OC12 (stereo not given)
0.67,CCN1CC2C3C(=O)N(Cc4ccccc4)C(=O)C3[C@](Cc3ccccc3)(C1=O)N2C(=O)c1ccccc1 (stereo not given in full)
0.7,COc1ccc(C=C(C#N)c2cccnc2)cc1OC
0.7,COC(=O)[C@@]12CCCN1C(c1ccc(-c3ccccc3)cc1)C1C(=O)N(C)C(=O)C12 (stereo not given in full)
0.7,CC(O)C1CNCCN1CCc1cc(C(F)(F)F)cc(C(F)(F)F)c1 (stereo not given)
0.73&0.75,CCN1C(=O)C2C(c3ccc(-c4ccc(F)cc4)cc3)N3CCCC[C@@]3(C(=O)OC)C2C1=O (stereo not given in full)
0.66,CC=CC(=O)N1CC2(CC(c3cccc(NC(=O)COc4ccc(Cl)cc4)c3)=NO2)CC1C(N)=O (stereo not given)
0.68,OCC1OC(OC2C(CO)O[C@@](O)(CO)C2O)C(O)C(O)C1O (stereo not given in full)
0.72,O=C(C=CNc1ccc(F)cc1)c1cccs1
0.68,CCC(C)C1CN=C(N)N1CC1CCCCC1 (stereo not given)
0.69,NC(=O)CC1NC(=O)C(CCC(=O)O)NC(=O)c2cc([N+](=O)[O-])cc(I)c2NCCCC(C(N)=O)NC1=O (stereo not given)
0.69,CCOC(=O)C1C2COc3ccc(Br)cc3C2N2C(=O)CN(Cc3ccco3)C(=O)[C@@]12C (stereo not given in full)
0.68,COc1ccc(NC(=O)Nc2cccc3c2OC(CN(C)C(=O)Nc2c(C)noc2C)C(C)CN(C(C)CO)C3=O)cc1 (stereo not given)
0.71,CCCC=C1CCCOC(C(=O)NCc2cc(C)n(C)n2)(C(F)(F)F)C1 (stereo not given)
0.71,CCC(CC)CN1C(Nc2ccccc2)=NCC1C (stereo not given)
0.67,CSCCC(NC(=O)OC(C)(C)C)c1nnc(SCC(N)=O)o1 (stereo not given)
0.66,C#CCOCCOCCOCCNc1nc(N2CCN(C(=O)C(CCCCN)n3cc(C(N)C(C)CC)nn3)CC2)nc(N2CCN(C(=O)C(C(C)CC)n3cc(C(N)CO)nn3)CC2)n1 (stereo not given)

The listing continues:
E coli growth,SMILES
0.71,COc1ccc(NC(=O)N(C)CC2Oc3ccc(NS(=O)(=O)c4ccccc4)cc3C(=O)N(C(C)CO)CC2C)cc1 (stereo not given)
0.69,CCN1C(=NCCOC)NC(c2cccs2)C(C(=O)OC)=C1C (stereo not given)
0.69,COc1cc(C=CC(=O)O)cc(S(=O)(=O)Nc2ccccc2SC)c1OC
0.7,CCCCN1C(=N)N(C(C)CN2CCCC2CN2C(N)=NCC2Cc2ccccc2)CC1Cc1ccccc1 (stereo not given)
0.67&0.73,C=CCC(CC(=O)NCCO)C(=O)NC(COC(=O)C(CC=C)CC(=O)OC(C)(C)C)Cc1ccccc1 (stereo not given)
0.68,O=C(NCC1CC1)C1CC1C(NP(=O)(c1ccccc1)c1ccccc1)c1ccccc1 (stereo not given)
0.62,CCN1C(Nc2ccccc2)=NCC1Cc1ccccc1 (stereo not given)
0.73,COC(=O)C1CCC(C)C(c2ccc(C)cc2)N1C(=O)c1ccc(C=NOC(C)c2cn(C(CO)Cc3ccccc3)nn2)cc1 (stereo not given)

Among those listed so far, 2 have an aryl thioether with sulfur outside any ring.
E coli growth,SMILES
0.67,CSCCC(NC(=O)OC(C)(C)C)c1nnc(SCC(N)=O)o1 (stereo not given)
0.69,COc1cc(C=CC(=O)O)cc(S(=O)(=O)Nc2ccccc2SC)c1OC

Additional records
E coli growth,SMILES
0.72,C[C@]12CCC(=O)C=C1C(O)CC1C2C(O)C[C@@]2(C)C1CC[C@]2(O)C(=O)CO (stereo not given in full)
0.68,COC(=O)CN1C(=O)C2C(c3ccc(C)o3)N3C(=O)CN(CCO)C(=O)[C@@]3(Cc3ccccc3)C2C1=O (stereo not given in full)
0.65,CCCN1CCC(=O)N(C(CSc2ccc(OC)cc2)CC(C)C)CC1 (stereo not given)
0.68,O=C1CCC(O)CCN1C(CSc1ccc(Br)cc1)Cc1ccccc1 (stereo not given)
0.7,O=C(OCc1ccccc1)C(=C(O)c1ccccc1Br)c1ccc(-c2ccccc2)cn1
0.71,COc1ccc(OC2C=CC(c3ccccc3)OC2CON=CCC2C=CC(OC(C)=O)C(COC(C)=O)O2)cc1 (stereo not given)
0.68,CC1CN(Cc2ccccc2)C(=O)C1CC(=O)NCc1ccccc1 (stereo not given)
0.7,CC1CN=C(Nc2ccccc2)N1CC1CCCCC1 (stereo not given)
0.65,COC(=O)CC1c2ccccc2S(=O)(=O)N1Cc1ccc(OC)cc1 (stereo not given)
0.7,CC(C)CC(CN=[N+]=[N-])N1CCN(Cc2ccccc2)CCC1=O (stereo not given)
0.68,COC(CC=CC(=O)C(C)OCc1ccccc1)OC (stereo not given)
0.68,CN1C(=O)C2C(C1=O)C(c1cccc(Br)c1)N1C(=O)c3ccccc3NC(=O)C21 (stereo not given)
0.67,O=C(C=Cc1ccc(S(=O)(=O)N2CCOCC2)cc1)NC(=S)NCCCn1ccnc1
0.69,COc1ccc(CC2CN3C(=NCC3Cc3ccccc3)N2CCNC(=O)CCC2CCCCC2)cc1 (stereo not given)
0.65,CC1C2Cn3c(nc4ccccc43)C1N(C1CCCCC1)O2 (stereo not given)
0.7,O=C1CCCCC=CCC(CC(=O)N(CCO)Cc2ccccc2)C(=O)NC(c2ccccc2)CO1 (stereo not given)
0.69,CCCSc1ccc(C2N[C@@](Cc3ccccc3)(C(=O)OC)C3C(=O)N(CC)C(=O)C23)cc1 (stereo not given in full)
0.65,CC(C=NNC(=O)CSc1ccccn1)=Cc1ccc(C(C)C)cc1
0.68,CC(C)(C)CN1C(=O)C(=O)NCC1CCCCN (stereo not given)
0.62,C[C@]12CCC3c4cc(O)c(O)cc4CCC3C1CCC2O (stereo not given in full)
0.68&0.69&0.67&0.67&0.68,C=CCC(Cc1ccc(F)cc1)C(=O)OCC1CCCN1C(=O)C(CC=C)CC(=O)NC(CO)Cc1ccccc1 (stereo not given)
0.72,COc1ccc(C2=CC(=O)CC(c3ccc(Cl)cc3)C2)cc1 (stereo not given)
0.68,COc1ccc(C2C3C(=O)N(C(C)(C)C)C(=O)C3[C@]3(C)C(=O)N(c4cccc(C)c4)C(=O)N23)cc1 (stereo not given in full)
0.66&0.68,CCOC1OC(C(=O)NCc2ccccc2)=CC(c2ccccc2)C1CCCO (stereo not given)
0.72,CC=CC=NNc1nc(C)cc(=O)[nH]1
0.67,c1ccc(-c2cn(CC3CCC(C4CCC(Cn5cc(-c6ccccn6)nn5)O4)O3)nn2)nc1 (stereo not given)
0.7,Cc1cn(C(CCCCN)C(=O)NCCCCCCCCCCC(=O)N2CCNCC2)nn1 (stereo not given)
0.72,Cn1ccc2ccc(C3=CC(=O)CC(c4ccc(F)cc4)C3)cc21 (stereo not given)
0.71,CCCN1C(=O)SC(=Cc2ccc(N3CCOCC3)o2)C1=O
0.69,CCOC(=O)C1C2COc3cc(OC)ccc3C2N2C(=O)CN(Cc3ccco3)C(=O)[C@@]12C (stereo not given in full)
0.66&0.68&0.7,CC(C)(C)C1COC(=O)C(Cc2ccc(F)cc2)CCC=CCC(CC(=O)N(CCO)Cc2ccccc2)C(=O)N1 (stereo not given)
0.67,COc1ccc(SCC(CC(C)C)N2CCN(C)CCC2=O)cc1 (stereo not given)
0.7,C#Cc1ccc(C2C=C(C(=O)NC3CC3)OC(OCc3ccc(CO)cc3)C2)cc1 (stereo not given)
0.69,CCC1=C2CCC3C(=O)N(c4ccccc4)C(=O)C3C2[C@@]2(C)C(=NCc3ccccc3)OC(=O)N2C1=O (stereo not given in full)

Of the compounds above, these contain a Cl atom:
E coli growth,SMILES
0.71,CCOC(=O)C1C2COc3ccccc3C2N2C(=O)N(c3cccc(Cl)c3)C(=O)[C@]12C (stereo not given in full)
0.67&0.71,CCOC(=O)C1C2COc3ccc(Br)cc3C2N2C(=O)N(c3cccc(Cl)c3)C(=O)[C@]12C (stereo not given in full)
0.72,CCCCN1CCC2C=CCC(C(=O)Nc3ccc(Cl)c(C(F)(F)F)c3)C2C1=O (stereo not given)
0.69,COc1ccc(N2C(=O)N3C(c4ccc(Cl)cc4)C4C(=O)N(C5CCCCC5)C(=O)C4[C@]3(C)C2=O)cc1 (stereo not given in full)
0.69,Cc1cccc(C2C3C(=O)N(Cc4ccccc4)C(=O)C3[C@]3(Cc4ccc(Cl)cc4)C(=O)N(c4ccccc4)C(=O)N23)c1 (stereo not given in full)
0.67,O=S1(=O)C2CC3O[C@]2(CC3c2ccc(F)cc2)CN1Cc1ccc(Cl)cc1 (stereo not given in full)
0.69,CC=C(C)C(=O)N1CC2(CC(c3cccc(NC(=O)COc4ccc(Cl)cc4)c3)=NO2)CC1C(N)=O (stereo not given)
0.7,O=C1C=C(c2cccc(CO)c2)CC(c2ccc(Cl)cc2)C1 (stereo not given)
0.66,CC=CC(=O)N1CC2(CC(c3cccc(NC(=O)COc4ccc(Cl)cc4)c3)=NO2)CC1C(N)=O (stereo not given)
0.72,COc1ccc(C2=CC(=O)CC(c3ccc(Cl)cc3)C2)cc1 (stereo not given)

Compound activity as filed in PubChem BioAssay.

Only part of the results is shown; the hit share may differ from the screen's.
